Assay outcomes: PubChem, Fisher Drug Discovery Resource Center
NPYLR7 agonist – mosquito NPYLR7 agonism; HEK293T NPYLR7/Galpha15, GCaMP6s calcium fluorescence; activation, % at 10 µM; 270,000 tested, 0.15% active; in the data active = activation above about 40%;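 also: 0% = vehicle and 100% = reference agonist at the receptor; some compounds past the cut are filed as inactive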
NPYLR7 agonist max-min – second read-out of NPYLR7 agonist, no call of its own (marks repeat the call); activation, %; measured here: Max-Min RFU normalised activation; some inactives read as strong as hits;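 span of the calcium signal over five minutes; 0% = vehicle and 100% = native peptide agonist; compound fluorescence can raise it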
The depositor's hits bear a star; & = joins results of further samples.

SMILES	NPYLR7 agonist	NPYLR7 agonist max-min
CC(CN(C)Cc1cc(F)ccc1O)N1CCOCC1 (stereo unspecified)	5	2
CC(C)CCN(Cc1cccn1Cc1ccc(C(C)(C)C)cc1)CC(O)Cc1ccccc1 (stereo unspecified)	-1	4
Cc1nc(N2CCOCC2)ncc1-c1cc(=O)[nH]c(N2CCc3ccccc3C2)n1	2	-3
Cc1nnsc1C(=O)OCc1cc(-c2ccc(F)cc2F)on1	-2	-5
CC(Cc1ccncc1)NC(=O)CC12CC3CC(CC(C3)C1)C2 (stereo unspecified)	3	0
CC(=O)N1CCC(=NNC(=O)c2ccc(-n3c(C)ccc3C)cc2)CC1	8	6
O=C(NCCc1ccccc1)N1CCCC1c1cccs1 (stereo unspecified)	0	1
CSc1cc2c(cc1C(F)(F)F)N(C(=O)Nc1cccnc1)CC2	-4	-5
N#CCc1ccc(C(F)(F)F)cc1	6	5
CC(=O)Nc1cccc(NC(=O)c2cn(Cc3ccccc3)nc2OCc2ccccc2)c1	16	5
CN(Cc1cc(F)ccc1O)Cc1cccc2cnccc12	10	5
COC(=O)c1ccc(COC[C@@H]2CN(C(C)C)S(=O)(=O)[C@H]2c2ccccc2)cc1	0	4
COc1ccc(S(=O)(=O)c2cnc(SCC(=O)Nc3ccc(C)cc3Cl)[nH]c2=O)cc1	-2	-4
CCOC(=O)C(C#N)=Cc1ccc(N2CCCCC2)cc1	11	11
Cc1ccc(C)c(S(=O)(=O)Nc2ccc(Nc3ccc(-n4cccn4)nn3)cc2)c1	-5	-13
CCc1nc2ccc(C(=O)NCCCn3ccnc3)cn2c1N(CC)CCOC	-3	-9
N#CC1=Cc2ccccc2OC1	-3	-5
COc1cc(CN(C)C(=O)c2ccc(-c3cc(-c4cccc(C(F)(F)F)c4)n[nH]3)cc2)cc(OC)c1OC	1	0
CC(c1cccs1)N(C)C(=O)CCN1CCCCCC1=O (stereo unspecified)	4	1
Cc1ncc(C(=O)N2CCCC(N(C)CCc3ccccc3)C2)c(=O)[nH]1 (stereo unspecified)	3	3
Cc1cc(NC(=O)C(C)(C)C)n(-c2nc(-c3ccccc3)cs2)n1	-8	-13
O=S(=O)(Cc1ccccc1)c1nc2ncccc2[nH]1	2	-1
COCCCNC(=O)CSc1nnc(Nc2ccccc2F)s1	0	2
O=C1NCCN(Cc2cccc(C(F)(F)F)c2)C1CC(=O)N1CCCOCC1 (stereo unspecified)	4	3
CC1CCCC(c2ccccc2)N1CC(=O)N(C)c1nccs1 (stereo unspecified)	9	-5
COc1ccc(-n2ccnc2CN2CCN(C(=O)c3ccccc3)CC2)cc1	23	4
O=C(C(C1CCCC1)N1CCN(C(=S)Nc2ccc(F)cc2)CC1)N1CCc2ccccc2C1 (stereo unspecified)	-4	-4
COc1ccc(-c2nn3c(NCC(C)C)cc(C)nc3c2C)cc1OC	-3	-7
Cc1ccccc1-n1cnnc1SCCS(=O)(=O)C(C)C	9	6
CCN(C(=O)C(=O)c1c[nH]c2ccccc12)c1ccc(OC)cc1	-4	-6
O=C(CSc1ncn[nH]1)Nc1ccc(F)cc1	-5	-10
O=C(Nc1nccs1)N(Cc1ccccc1)CC(O)c1ccco1 (stereo unspecified)	1	-5
Cc1cccc(-c2noc(CN3CCN(CC(C)O)C(C)C3)n2)c1 (stereo unspecified)	0	0
CC(C)(C)c1ccc(C2=NC(=Cc3ccc4c(c3)OCO4)C(=O)O2)cc1	5	27
Nc1nnc(SCC(=O)c2ccc(Br)cc2)s1	14	10
CNC(=O)[C@@]1(OCc2ccc(F)cc2)CC(OCc2ccc(C#N)cc2)[C@@H]2OC(C)(C)O[C@@H]2C1 (stereo partly specified)	10	14
COc1ccc(NC(=O)C2CC=CCC2C(=O)N2CCC(C#N)(c3ccccc3)CC2)cc1 (stereo unspecified)	-11	-20
O=C(c1ccc(-c2ccccc2F)cc1)N1CCC2(CC1)CC2C(=O)N1CCN(c2ccccn2)CC1 (stereo unspecified)	18	6
CCCCNC(=O)CN1CCN(C(=O)c2ccc(S(C)(=O)=O)cc2)CC1	10	5
O=C1NC(=S)SC1=Cc1c(F)cccc1Cl	-3	-4
O=C(O)c1cccc(NC(=O)c2cc3ccccc3oc2=O)c1	3	-3
CC1(C(=O)NS(=O)(=O)c2ccc(F)cc2F)CCN1C(=O)c1ccccc1CCc1ccccc1 (stereo unspecified)	6	3
Nc1cc(S(=O)(=O)C(F)(F)F)ccc1Cl	0	0
CC(C)N(CC(=O)N(Cc1ccc2c(c1)OCO2)Cc1ccco1)C(=O)C1C[C@H]1c1ccccc1 (stereo partly specified)	-5	-3
Cc1cc(NC(=O)c2nnn(-c3ccccc3)c2C)no1	1	-10
O=C(Cc1cccs1)Nc1cccc2c1CCCC2	6	5
FC(F)(F)c1c2c(nn1-c1ccccc1)CCC2	-1	-2
O=c1[nH]c(=O)n(Cc2ccccc2C(F)(F)F)cc1Cl	-6	-6
COc1ccc(-n2c(SCc3cc(C)ccc3C)nnc2-c2ccccc2C)cc1	16	22
Cc1ccccc1-c1nc(CN2CCN3CCNC(=O)C3C2)c(C)o1 (stereo unspecified)	14	15
COC(=O)C1=C(C)NC2=C(C(=O)CC(c3ccccc3)C2)C1c1ccc(N(C)C)cc1 (stereo unspecified)	0	-6
CC(C)c1ccc(NC(=O)/C=C/c2ccc3c(c2)OCO3)cc1	-8	-16
COC(=O)c1ccccc1NC(=O)c1nc2nc(C)cc(C(F)F)n2n1	-1	-2
COc1cn2c(cc1=O)C(=O)N(CCNC(=O)c1ccc[nH]c1=O)CC2	18	15
O=C(CCC1CCCN(C(=O)C2CCOCC2)C1)NCc1ccccc1F (stereo unspecified)	2	-2
COc1cc(C(=O)N2CCC(O)(CN(C)C)C2)ccn1 (stereo unspecified)	5	4
COc1ccccc1C1CCCN1C(=O)c1cnn2c1CCCC2 (stereo unspecified)	4	3
Cc1ccc(C(=O)NCC(C)N2CC(C)OC(C)C2)cn1 (stereo unspecified)	-2	-1
CCc1[nH]n(-c2ccc(Cl)c(Cl)c2)c(=O)c1C1=C(N(CC)CC)C(=O)N(c2ccc(OC)cc2)C1=O	4	8
CN(C)c1nc(Cl)nc(Oc2ccc(=O)n(C)n2)n1	1	-1

The list goes on.
SMILES	NPYLR7 agonist	NPYLR7 agonist max-min
COCCCN(CC(=O)N(Cc1ccc2c(c1)OCO2)Cc1cccs1)S(=O)(=O)c1ccc(Cl)cc1	0	9
O=C(CCC1CCCN(Cc2ccc(Cl)s2)C1)N1CCOCC1 (stereo unspecified)	12	5
Cc1ccc(C(NCC(=O)N2CCNC(=O)C2)C(F)(F)F)cc1 (stereo unspecified)	4	2
COc1ccccc1C(=O)n1sc(=O)c2ccccc21	-3	-6
O=C1NC2(CCN(Cc3ccc(F)cc3)CC2)Nc2cccc(F)c21	0	6
Oc1cccc2ccc(/C=N\Nc3ccc4ccccc4n3)nc12	4	4
CN(C(=O)CCc1cnn(C)c1)C1CCCN(C2Cc3ccccc3C2)C1 (stereo unspecified)	15	6
CCc1nc2ccc(C(=O)NCCN3CCNC3=O)cn2c1N(C)Cc1nccn1C	-4	-10
CN(C/C=C/C#CC(C)(C)C)Cc1cccc2ccccc12	-1&-1	-5&4
O=c1[nH]nc(Sc2ncnc3sc4c(c23)CCCCC4)n1CC1CCCO1 (stereo unspecified)	-8	-8
O=C(CC1C(=O)NC2(CCCC2)CN1CCc1ccccc1)NC1CC1 (stereo unspecified)	25	16
O=C(/C=C/c1ccc([N+](=O)[O-])s1)Nc1ccc(F)cc1F	20	11
Cc1noc(C)c1C(=O)N[C@H]1C[C@@H]1c1ccccc1	-7	-13
COc1ccc(C2CC(C(F)(F)F)n3ncc(C(=O)NC(C)C)c3N2)cc1 (stereo unspecified)	-4	-6
Cc1ccc(C(=O)NS(=O)(=O)c2ccc(F)cc2F)cc1S(C)(=O)=O	0	-2
CC(=O)NC1(C(=O)OCc2ccc(C)cc2)CCCCC1	7	3
CCCCn1c(N)c(Br)c(=O)[nH]c1=O	-1	-1
C[C@@H](NC(=O)C1(N2Cc3ccc(-c4ccnn4C)nc3C2=O)CC1)c1ccccc1	-15	-15
Cc1nnc(C(C)Oc2ccc(OC(C)C)cc2)o1 (stereo unspecified)	-4	-5
COc1ccccc1N=C(N)N=C(N)N	4	3
CCC(C(=O)NNC(=O)c1ccccc1)c1c(C)noc1C (stereo unspecified)	7	6
COC(=O)[C@H]1CCCN1C(=O)[C@@H]1C[C@@H](NC(=O)c2snnc2C)CCN1C(=O)c1cc(C)nn1C	-7	-13
CC(C)c1ccccc1OCc1nc(CN(CCN2CCCCC2)C(=O)c2cccc(Br)c2)cs1	0	12
CCOC(=O)C1(CCOC)CCN(Cc2c(C)n(C)c3ccccc23)CC1	11	13
COCc1nc(C)cc(NCC(O)c2cc(OC)ccc2OC)n1 (stereo unspecified)	-7	-8
CC1CCCC(NC(=O)Cn2nnc(-c3ccc(Cl)cc3)n2)C1C (stereo unspecified)	-7	-8
COc1ccc(OC)c(C(=O)Nc2cc(Cl)cc(Cl)c2)c1	4	-2
COn1c(=O)c(-c2cccc(Br)c2)[n+]([O-])c2ccccc21	-3	-4
Cc1ccc(NS(=O)(=O)c2ccc3c(c2)OCCO3)cc1	-2	-7
O=C(Nc1cccc2c1CCCC2)N(Cc1cccs1)CC1CCCO1 (stereo unspecified)	10	7
COc1cc(Nc2ccc(NC(=O)Nc3cccc(C)c3)cc2)nc(C)n1	3	-1
CCCCCCCCCCCC(=O)Nc1ccc(-n2nc(OC(C)C)nc2-c2cccc(C(F)(F)F)c2)cc1	8	16
CN(Cc1ccccn1)C(=O)c1cc(=O)c2cc(Br)ccc2[nH]1	6	3
Cc1cccnc1C(c1ccc(F)cc1)N(C)C(=O)C1CCN(C(=O)C2CCCCC2)CC1 (stereo unspecified)	0	-9
O=C(C[n+]1cc(-c2ccc(Br)cc2)n2c1CCC2)c1ccccc1	16	8
COc1ccc(NC(=O)Cn2nc([N+](=O)[O-])c(Br)c2C)cc1OC	28	14
Cn1c(C2CCCN(S(C)(=O)=O)C2)nn(CC(=O)NCc2ccccc2Cl)c1=O (stereo unspecified)	0	5
C=CCNC(=O)N1CCN(C(C(=O)NCc2cccc(C)c2)C2CCCC2)CC1 (stereo unspecified)	-8	-3
COc1cccc(-n2c(SCC(=O)O)nnc2C2CCOCC2)c1	0	-1
CC(=O)Nc1cccc(N=c2scc(C)n2C2CCCC2)c1	-1	-1
O=C(O)CCn1cnc2sc3c(c2c1=O)CCCC3	0	8
C=CCN=c1scc(-c2ccccc2F)n1N=Cc1cccc(O)c1O	-5	-16
CC(C)(C)c1ccc(-c2ccnc(N3CCN(C(=O)c4cccnc4Cl)CC3)n2)cc1	27	18
O=S(=O)(NCc1ccccc1)NCC1COc2ccccc2O1 (stereo unspecified)	-3	-3
CCN(Cc1ccccc1)C(=O)c1ccccc1N1CCC(NC(=O)c2ccccc2Cl)CC1	0	9
CCN(CC)CCN(C(=O)C1=COCCO1)c1nc2ccc(Cl)cc2s1	-4	-8
Cc1ccn2c(NC(=O)C(C)(C)C)c(-c3ccccc3)nc2c1	-9	0
Cc1ccc2[nH]c(CCC(=O)N3C[C@H]4C[C@H](O)[C@H](O)C[C@H]4C3)nc2c1C	24	5
CC(C)(C)N1C=C(NCc2ccccc2)OS1=O (stereo unspecified)	-6	-7
CCOc1ncccc1-c1cc(C(=O)N2CCOCC2)ccn1	18	8

A portion of the library (hit frequency here may not be typical).
